# Measles inh: inhibitors of measles virus growth in cells, primary screen, measles RdRp inhibitor project, cell-based, single point, HTS; infected Vero cells, GFP fluorescence, 64 h; active compounds read low; z-score (no concentration beside the values); AID 745, 2007; 33,000 compounds, 0.1% hits;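 active = z-score under -3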;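 note: score is relative to mean and SD of the compound wells of a plate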
# * marks the source's active call; other numbers are inactive results. Not all compounds are listed (hit frequency here may not be typical).
Measles inh	canonical_smiles
-0.23	CCCCc1c(C)nc2ccc(Br)cc2c1SCCC(=O)O
-0.6	Cc1nc2ccc3nc(NC(=O)c4cccc([N+](=O)[O-])c4)sc3c2s1
0.19	O=C(CSc1nc2ccccc2[nH]1)Nc1ccccc1
0.06	CSc1nnc2c(n1)OC(c1cccn1C)N(C(C)=O)c1ccccc1-2 (centres undefined)
-0.24	CC(=O)Nc1cccc(Nc2nc(C)nc3sc4c(c23)CCCC4)c1
0.89	COC(=O)c1ccc2c(=O)n(Cc3ccccc3OC)c(=S)[nH]c2c1
-0.89	Cc1ccc(Cn2c(SCc3cccc(F)c3)nc3ccsc3c2=O)cc1
0.5	O=C1CC(c2cccs2)CC2=C1C(c1cccc(O)c1)Nc1ccccc1N2 (centres undefined)
0.1	Cc1c(C(=O)NCCC2=CCCCC2)sc2ncnc(N(C)c3ccccc3)c12
0.24	COc1cccc(CNc2cc(-c3nc4cc(C)cc(C)c4o3)ccc2C)c1O
-1.25	C=CCn1c(SCc2ccc(Cl)cc2)nc2cc(C(=O)N3CCC(C(N)=O)CC3)ccc2c1=O
-0.96	COc1ccc(C2NC(=S)NC3=C2C(=O)CCC3)cc1 (centres undefined)
0.05	O=C(CC(=O)C(F)(F)F)c1cccs1
-0.33	COCCCNC(=O)c1ccc2c(c1)N(Cc1ccccc1)C(=O)CS2
-0.18	O=C1CNC23CCCCC2C(c2ccccc2O3)C1C(=O)Nc1ccccc1 (centres undefined)

# Filtered by structure, the compounds so far with an aryl methoxy group
Measles inh	canonical_smiles
0.89	COC(=O)c1ccc2c(=O)n(Cc3ccccc3OC)c(=S)[nH]c2c1
0.24	COc1cccc(CNc2cc(-c3nc4cc(C)cc(C)c4o3)ccc2C)c1O
-0.96	COc1ccc(C2NC(=S)NC3=C2C(=O)CCC3)cc1 (centres undefined)

# Next section.
Measles inh	canonical_smiles
-0.13	c1ccc(-c2csc3ncn4nnnc4c23)cc1
0.76	O=C(Nc1cccc(-c2nc3ccccc3o2)c1)c1cnccn1
0.75	CN1C(=O)CC(C(=O)Nc2ccc(C(=O)O)cc2)SC1=Nc1ccccc1 (centres undefined)
-0.09	O=C(Nc1ccc([N+](=O)[O-])cc1Cl)c1cccc(C(=O)Nc2ccc([N+](=O)[O-])cc2Cl)n1
-0.35	COc1cc(OC)cc(-c2nc(-c3nonc3N)no2)c1
0.82	Clc1ccccc1-n1ncnc1-c1ccc(Br)cc1
0.89	Cc1cc(Oc2coc3cc(OC(=O)c4cccs4)ccc3c2=O)cc(C)c1Cl
-0.03	CCC(C)OC(=O)C1=C(C)NC2=C(C(=O)C(C(=O)OC)C(C)C2)C1c1ccc(OC)c(OC)c1 (centres undefined)
0.9	CCOc1ccccc1C(=O)Nc1ccc(-n2nncc2-c2ccccc2)cc1
2.44	CC(=O)N1c2c(cc(Br)cc2S(=O)(=O)N2CCCC(C)C2)CC1C (centres undefined)
0.9	CCCOC(=O)c1ccc(NC(=O)c2c(O)c3cccc4c3n(c2=O)CCC4)cc1
-0.46	CCOC(=O)C1=C(CC)NC2=C(C(=O)CCC2)C1c1ccncc1 (centres undefined)
-0.23	O=C1C2CCCCC2C(=O)N1c1ccc(NC2CCN(Cc3ccccc3)CC2)c([N+](=O)[O-])c1 (centres undefined)
0.48	COc1ccc(N2CC(C(N)=O)CC2=O)cc1 (centres undefined)
-0.86	CC(C)COC(=O)C1C2C=CC3(CN(CC(C)C)C(=O)C13)O2 (centres undefined)

# 2 compounds picked at random from those above, as already listed:
Measles inh	canonical_smiles
-0.46	CCOC(=O)C1=C(CC)NC2=C(C(=O)CCC2)C1c1ccncc1 (centres undefined)
0.75	CN1C(=O)CC(C(=O)Nc2ccc(C(=O)O)cc2)SC1=Nc1ccccc1 (centres undefined)

# The results go on.
Measles inh	canonical_smiles
0.57	Cc1ccc(-c2nc(Nc3ccccc3C)sc2C)cc1
0.6	CCOc1ccc(Oc2cc(NC(=O)c3cc4n(n3)C(C(F)(F)F)CC(c3ccc5c(c3)OCO5)N4)cc([N+](=O)[O-])c2)cc1 (centres undefined)
0.16	COc1ccc(-c2cc(C(N)=O)on2)cc1
1.6	O=C(O)CCC(=O)OCc1ccccc1
1.03	O=C(Nc1ccccn1)c1ccc(Cl)c([N+](=O)[O-])c1
0.28	NC(=O)CSc1oc(-c2ccco2)nc1S(=O)(=O)c1ccccc1
-0.01	COc1ccc(-c2cc(C(=O)O)c3cc(C(C)C)ccc3n2)cc1
-0.26	Cc1ccc(C2C(=O)N(C3CCCC(C)C3C)CC(=O)N2C2CCCCC2)cc1 (centres undefined)
-0.21	CCOc1ccccc1C(=O)Nc1ccccc1F
0.1	O=C(Nc1ccc2c(c1)OCO2)C(c1ccccc1)N1CCN(C(=O)c2ccco2)CC1 (centres undefined)
-0.61	CC(=O)N1CCN(c2ccc([N+](=O)[O-])c(NCc3ccccc3)c2)CC1
-1.07	COC(=O)c1ccc(CSc2nc3c(c(=O)n2-c2ccccc2)SCC3)o1
0.41	CCOc1cc2c(cc1OCC)C1C(C(=O)N(C)Cc3ccccc3)c3ccccc3C(=O)N1CC2 (centres undefined)
-0.39	CCN(CC)c1ccc(NC(=O)C2(S(=O)(=O)c3ccc(C)cc3)CC2)c(C)c1
0.61	CCOC(=O)C1=C(N)N(c2ccc(S(N)(=O)=O)cc2)C2=C(C(=O)CC(C)(C)C2)C1c1ccc(Br)s1 (centres undefined)

# Next entries
Measles inh	canonical_smiles
0.77	O=C(O)Cn1cc(Cl)c([N+](=O)[O-])n1
-0.34	O=C(Cn1cnc2sc3c(c2c1=O)CCCC3)NCCCC(=O)N1CCN(c2ccc(F)cc2)CC1
0.44	CC1CCCCN1CCCNC(=O)c1cc(-c2ccc(Br)s2)nc2ccccc12 (centres undefined)
-0.73	COc1cc2c(C(=O)N3CCOCC3)cn(CC(C)C)c(=O)c2cc1OC
1	O=C(CCn1c(=S)[nH]c2cc3c(cc2c1=O)OCO3)NC1CCN(Cc2ccccc2)CC1
2.46	COc1ccccc1CNC(=O)C1CCN(S(=O)(=O)c2cccc3nsnc23)CC1
-0.46	O=C(NCc1ccccc1)c1cccc(C(=O)NCc2ccccc2)c1
-0.05	N#Cc1c(-c2ccccc2)cc(-c2cccs2)nc1SCC(=O)NCc1ccccc1
-1.53	COc1ccc(CC(=O)Nc2c3c(nn2-c2cccc(C)c2C)CS(=O)(=O)C3)cc1OC
-0.74	Cc1ccc(C(C)C)c(OCC(=O)Nc2ccc3nn(-c4ccccc4)nc3c2)c1
-0.05	Cc1cc(-c2ccccc2)nc(Nc2nc(C)c3cc(C)c(C)cc3n2)n1
-1.32	O=C(CSc1nc2c([nH]c3ccccc32)c(=O)n1-c1ccc(F)cc1)N1CCCC1
-0.47	COc1ccc(N2C(=O)CC(Nc3ccc(OC(F)(F)Cl)cc3)C2=O)cc1 (centres undefined)
-0.03	CCOC(=O)CN1N=C(c2ccccc2)CCC1=O
-0.27	O=C(Oc1ccc(N(C(=O)c2ccncc2)S(=O)(=O)c2ccc(Cl)cc2)cc1)c1ccncc1

# The list goes on:
Measles inh	canonical_smiles
0.05	CCOc1cc(C2NC(=O)NC(C)=C2C(=O)OC(C)CC)cc(Br)c1O (centres undefined)
-0.3	C=CCn1c(-c2ccccc2)csc1=Nc1ccc(O)cc1
-0.68	O=C1c2ccccc2C(=O)c2c1oc1c3c(ccc21)OCN(Cc1ccccn1)C3
1.58	OCC1OC(Nc2cccc3ccccc23)C(O)C(O)C1O (centres undefined)
-0.8	O=C(NCCc1ccccc1)c1ccc2c(c1)[nH]c(=S)n1c3ccccc3nc21
-0.64	Cc1ccccc1OCCSc1nc2ccccc2n1CCO
0.92	Cc1ccc(Nc2cc(C(=O)NCc3ccco3)c3ccccc3n2)cc1C
-1.08	O=C1CC(c2ccccc2Cl)CC2=C1C(c1ccsc1)Nc1ccccc1N2 (centres undefined)
0.02	Cc1nc(-c2coc3c(C)c(O)ccc3c2=O)cs1
0.08	Cc1cccc(N2C(=O)CSC23CCC(C(C)(C)C)CC3)c1 (centres undefined)
1.19	COc1cccc(-n2ccnc2SCC(=O)Nc2cccc(C)c2C)c1
-0.61	CCCCC(=O)Nc1ccc(S(=O)(=O)N2CCCCC2c2cccnc2)cc1 (centres undefined)
0.73	Cc1ccc(NS(=O)(=O)c2cccs2)nc1
-0.52	Cc1ccc(-c2cc(C(F)(F)F)n3ncnc3n2)cc1
-0.8	CCOC(=O)C1=C(C)NC2=C(C(=O)C(C(=O)OC)C(C)C2)C1c1cc(Br)c(OC)c(OCC)c1 (centres undefined)

# Molecules above that contain an NH in an aromatic ring:
Measles inh	canonical_smiles
0.19	O=C(CSc1nc2ccccc2[nH]1)Nc1ccccc1
0.89	COC(=O)c1ccc2c(=O)n(Cc3ccccc3OC)c(=S)[nH]c2c1
1	O=C(CCn1c(=S)[nH]c2cc3c(cc2c1=O)OCO3)NC1CCN(Cc2ccccc2)CC1
-1.32	O=C(CSc1nc2c([nH]c3ccccc32)c(=O)n1-c1ccc(F)cc1)N1CCCC1
-0.8	O=C(NCCc1ccccc1)c1ccc2c(c1)[nH]c(=S)n1c3ccccc3nc21

# Other compounds:
Measles inh	canonical_smiles
-0.45	COc1ccc(-c2cc(C(F)(F)F)n3nc(-c4ccccc4)cc3n2)cc1
-0.03	COc1ccc(NC(=O)CSc2nc3cc(OC)c(OC)cc3c3nc(C)nn23)cc1Cl
-1.62	CCOC(=O)c1cc(-c2ccccc2)sc1NC(=O)COc1ccc([N+](=O)[O-])cc1
-1.2	CSc1ccc(-c2cc(-c3cccnc3)c3c(ccc4ccccc43)n2)cc1
-1.43	O=C1c2ccccc2C(=O)c2c1cccc2S(=O)(=O)N1CCOCC1
-1.21	Cc1csc(NC(=O)c2c(O)c3ccccc3[nH]c2=O)n1
0.03	Cc1ccc(N2C(=O)CSC2c2cc3c(cc2[N+](=O)[O-])OCO3)cc1 (centres undefined)
-1.71	COc1ccc(-c2onc3ccc(Cl)cc23)cc1
-0.09	CCN(CC)S(=O)(=O)c1ccc(C(=O)N=c2sc3ccccc3n2CC)cc1
-0.73	CCc1ccc(C2(O)CC(C(F)(F)F)=NN2C(=O)c2cccc(Br)c2)cc1 (centres undefined)
-0.01	CC12CC(NC(=O)N1c1cccc(C(=O)NC3CCCC3)c1)c1cc(Cl)ccc1O2 (centres undefined)
-0.44	O=C(NCc1ccccc1)c1ccc2c(=O)n(-c3cccc(C(F)(F)F)c3)c(=S)[nH]c2c1
-0.42	CCOc1ccccc1Nc1nc2ccccc2nc1NS(=O)(=O)c1ccc(Cl)cc1
-0.94	CC(C)(C)c1cc(C(F)(F)F)nc(N)n1
-0.49	CCCCCC(=O)Oc1ccc(C)cc1-n1nc2ccccc2n1

# Carrying on.
Measles inh	canonical_smiles
-1.46	Cc1cc(C)cc(-n2c(=O)c3sccc3n(CC(=O)C(C)(C)C)c2=O)c1
-0.21	CCOC(=O)Cc1nnc(NC(=O)c2ccc(C)cc2)s1
0.14	Cc1ccc(C(=O)NCCNc2ccc(C(F)(F)F)cc2[N+](=O)[O-])cc1
-2.6	Cc1ccccc1Cc1c(C)nc2nc(SCC(=O)N3CCOCC3)nn2c1C
-0.1	COc1cc(NC(=O)c2cc3c(CO)cnc(C)c3oc2=Nc2ccccc2)cc(OC)c1
0.76	O=C(CC1Sc2ccc(C(F)(F)F)cc2NC1=O)Nc1cccc(Cl)c1 (centres undefined)
-0.56	CCCCN(C)C(=O)c1cn(C)c2ccc(S(=O)(=O)N3CCCC3)cc2c1=O
0.98	CCOc1cc(C2Nc3ccccc3C(=O)N2Cc2ccco2)ccc1O (centres undefined)
0.47	Cc1ccc(-c2csc(NC(=O)c3cc(=O)c4ccccc4o3)n2)c(C)c1
-1.32	COc1cc(CNc2ccc(N3CCOCC3)cc2)cc(Cl)c1OCC(N)=O
-1.08	CCC(C)(C(=O)NC1CCCC1)N(Cc1ccco1)C(=O)c1ccc(=O)[nH]c1 (centres undefined)
-0.99	CCN(C(=O)C1c2ccccc2Oc2ccccc21)c1ccccc1
-0.06	COc1ccc(-c2nnc(NC(=O)c3ccc(S(=O)(=O)N4CC(C)OC(C)C4)cc3)o2)c(OC)c1 (centres undefined)
-0.09	O=C(N1CCN(CCO)CC1)N1c2ccccc2C=Cc2ccccc21
0.87	COc1ccccc1C1C2=C(CCCC2=O)N(CC(=O)O)C2=C1C(=O)CCC2

# (further entries)
Measles inh	canonical_smiles
0.09	CCCCNC(=O)CCn1c(=O)c2ccccc2n(Cc2cc(C)ccc2C)c1=O
0.41	COc1ccc(Cn2c(SCC(=O)Nc3cc(C(F)(F)F)ccc3Cl)nc3cc4c(cc3c2=O)OCO4)cc1
1.43	CCOc1ccccc1NC(=O)c1cc(S(=O)(=O)N2CC(C)CC(C)C2)ccc1F (centres undefined)
-0.15	COc1ccc(C=Cc2nc3ccccc3[nH]2)cc1
-0.28	Cc1ccc(Nc2nnc(-c3ccc(C)c(S(=O)(=O)NC(C)(C)CO)c3)c3ccccc23)cc1
-0.4	COc1ccc(CCNc2nc(SCc3cc(=O)n4ccccc4n3)nc3ccccc23)cc1OC
-0.45	COC(=O)c1ccccc1NC(=O)CSc1nc2ccsc2c(=O)n1Cc1ccccn1
-0.64	CC1=C(C(=O)OCC(C)C)C(c2ccc(F)cc2)C2=C(CC(c3cccs3)CC2=O)N1 (centres undefined)
0.99	COc1cc(Nc2ncnc3c2c(-c2ccccc2)cn3-c2ccccc2)cc(OC)c1OC
0.88	COCCNC(=O)CCS(=O)(=O)Cc1ccc(C)cc1
1.08	O=C(NCCc1ccccc1Cl)C(=O)NCc1ccccc1
-0.46	Cc1ccc(NC(=O)c2sc3ncn(CC(=O)Nc4cccc(C(F)(F)F)c4)c(=O)c3c2C)cc1F
1.11	Fc1ccccc1Nc1c2c(nc3ccc(Cl)cc13)CCC2
-0.84	CCOCCCNC(=O)c1ccc(Sc2ccc(Br)cc2)c([N+](=O)[O-])c1
-0.24	COCc1cc(C)nc(SCC(=O)N(c2ccccc2)c2ccccc2)c1C#N
-0.02	COc1cccc2c1OC1(C=C2)N(C)c2ccc([N+](=O)[O-])cc2C1(C)C (centres undefined)
0.88	O=C(CCS(=O)(=O)c1cccs1)Nc1ccc(C(=O)Nc2cccc(C(F)(F)F)c2)cc1

# Exported comma-delimited: entries from further up
SMILES,Measles inh
CCCCNC(=O)CCn1c(=O)c2ccccc2n(Cc2cc(C)ccc2C)c1=O,0.09
COc1ccc(Cn2c(SCC(=O)Nc3cc(C(F)(F)F)ccc3Cl)nc3cc4c(cc3c2=O)OCO4)cc1,0.41
